Screens deposited in PubChem BioAssay by several laboratories.
rRNA inh HTS: inhibitors of bacterial rRNA selective over humanized ribosomes; 350,000 tested, 1.6% active; E. coli WT GFP vs humanized-ribosome RFP mutants, fluorescence, 24 h; active compounds read low; DMSO median 0, no signal -100; GFP signal change (wild-type ribosome), % (no concentration beside the values); AID 720706;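 active = significant combined selectivity score with lowered wild-type GFP, culture density cut under 30%, mutant RFP and density less affected; inactive = any of these conditions unmet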; note: one replicate is shown; some compounds called inactive have numbers as strong as hits
Vif TR-FRET: HIV-1 Vif–A3G interaction blockers – biochemical, TR-FRET, GST-Vif 1-94, biotin-A3G peptide, dose response retest, primary screen (AID 1117319). TR-FRET GST-Vif / biotin-A3G peptide binding; higher % means a stronger effect; test concentration not given here; strong numbers were not always called active. inhibition, %; hits with a dose series show IC50 in µM. 260,000 tested, 0.57% active;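 active = above the screen mean plus three standard deviations and confirmed in dose response; inconclusive = results disagree or hit not tested in dose response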;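 note: Vif residues 1-94 fused to GST binding biotinylated APOBEC3G peptide 110-148; 0% = full assay without inhibitor and 100% = GST in place of GST-Vif; retest series ran down from 100 µM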
A1 inh: inhibitors of the anti-apoptotic protein A1, read as caspase activation; MEF A1-2A-BIM cells, Caspase-Glo 3/7 luminescence, 3 h; percent of clofoctol response, vehicle zero; caspase activation, % (test concentration not listed); 330,000 tested, 0.066% active; AID 2462;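 active = over half of replicate activation scores above 10%, or exactly half above 10 with the replicate mean above 10; inconclusive = replicate mean below 10 yet half the replicates above 10; inactive = over half of replicates below 10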;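 note: wells of about 30 µL received 50 nL stock; many hits fall short of the cut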
MLL AF4-AF9 inh: MLL-AF4/AF9 protein interaction inhibition; P42568; AlphaScreen, biotin-AF4 peptide binding to FLAG-AF9; inhibition, % at 10 µM; 350,000 tested, 0.47% active; AID 651704;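 active = every replicate reaching a set inhibition limit, whatever the replicate mean, cut at about 25% in these data; inconclusive = mean inhibition reaches that limit but some replicates miss it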;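 note: 0% = plate neutral control median and 100% = total signal loss; the record names both 10 and 1 µM as test concentration; the first replicate is given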
Target sequence (P42568 whole entry, looked up): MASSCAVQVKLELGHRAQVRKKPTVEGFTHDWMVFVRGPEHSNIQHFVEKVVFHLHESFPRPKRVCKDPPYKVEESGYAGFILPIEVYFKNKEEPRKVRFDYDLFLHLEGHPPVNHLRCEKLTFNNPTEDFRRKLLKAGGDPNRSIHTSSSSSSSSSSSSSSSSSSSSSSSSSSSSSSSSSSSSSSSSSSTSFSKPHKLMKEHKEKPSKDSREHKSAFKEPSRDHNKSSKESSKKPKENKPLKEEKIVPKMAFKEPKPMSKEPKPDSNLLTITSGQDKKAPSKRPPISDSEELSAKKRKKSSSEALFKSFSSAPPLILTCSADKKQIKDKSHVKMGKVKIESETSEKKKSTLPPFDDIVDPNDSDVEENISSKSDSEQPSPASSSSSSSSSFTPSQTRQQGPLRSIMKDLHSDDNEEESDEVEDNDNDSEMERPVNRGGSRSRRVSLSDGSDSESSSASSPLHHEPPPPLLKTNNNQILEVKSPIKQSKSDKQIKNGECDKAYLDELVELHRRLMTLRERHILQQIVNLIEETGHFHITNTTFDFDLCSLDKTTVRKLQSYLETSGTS
T cruzi repl: T. cruzi replication inhibition; T. cruzi beta-gal in NIH3T3, luminescence, 90 h; inhibition, % (no concentration beside the values); 300,000 tested, 1.4% active; AID 1885;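 active = mean inhibition across valid replicates above about 55%, limit read from the data; inconclusive = mean below that limit but half or more replicates reach it; inactive = mean below it, under half of replicates reach it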;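 note: signal also drops with host cell toxicity which is not excluded here; 0% = plate median of DMSO wells and 100% = zero luminescence signal; higher percent means less beta-gal luminescence so fewer parasites; stock transfer was 50 nL into about 50 µL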
RanGTP-Imp inh: inhibitors of RanGTP-importin-beta interaction, primary screen, biochemical, FRET, CFP-Ran, YFP-importin-beta, homogeneous | inhibition, % (concentration not given with the values) | 300,000 tested, 1.1% active | cell-free CFP-Ran/YFP-importin-beta FRET ratio;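 active = most replicates above 15%; inconclusive = exactly half above 15%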;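 note: 0% = DMSO wells and 100% = Ran loaded with GDP instead of GTP; wells of about 40 µL received 100 nL stock; the first replicate is given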
Beta cell apopt: blocks beta cell apoptosis. INS-1E cytokine-induced death, ATP luminescence, 48 h; percent of positive-control rescue, neutral wells zero. protection from apoptosis, % (concentration not given with the values). 300,000 tested, 0.8% active;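 active = all replicates at 75% or more, or half of them and the mean; inconclusive = half reach 75% but not the mean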;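 note: 0% = cytokine-treated negative control wells and 100% = positive control rescue; higher means more ATP so stronger rescue from cytokine killing; wells of about 40 µL received 100 nL stock; the first replicate is given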
Calb FLC: affects C. albicans growth with fluconazole. C. albicans CaCi-2 (fluconazole-resistant clinical isolate) + fluconazole, Alamar Blue growth, 48 h. growth inhibition, % (test concentration not listed). 300,000 tested, 0.57% active. AID 1979;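 active = most replicates above 75%; inconclusive = exactly half above 75%; inactive = most below 75%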;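 note: all wells also contain fluconazole at 8 µg/ml as a sub-toxic cotreatment; 0% = median of DMSO wells and 100% = median of geldanamycin control wells; wells of about 8 µL received 7.5 nL stock; the first replicate is given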
rRNA inh HTS OD600: second read-out of rRNA inh HTS, no call of its own (marks repeat the call); OD600 change, %; measured here: OD600 growth;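 optical density of the mix in the first replicate; 0 = DMSO median and -100 = no signal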
rRNA inh HTS RFP: also measured in rRNA inh HTS; calls as there; RFP signal change, %; measured here: RFP humanized mutant strains;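 first replicate; 0 = DMSO median and -100 = no signal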
* hit, by the source's call; ? = inconclusive; / = no result given; & = joins results of further samples. A portion of the library (hit frequency here may not be typical).

SMILES | rRNA inh HTS | rRNA inh HTS OD600 | rRNA inh HTS RFP | Vif TR-FRET | A1 inh | MLL AF4-AF9 inh | T cruzi repl | RanGTP-Imp inh | Beta cell apopt | Calb FLC
COc1ccc(CCNc2nc(-c3sc(C)nc3C)cs2)cc1OC | / | / | / | 6.7%&17.7% | 0.2 | / | 5.1 | -0.3 | 0.8 | -2.2
Cc1cc(NC(=O)c2ccc(Cl)cc2)n(CCOC(=O)c2ccc(Cl)cc2)n1 | / | / | / | / | 0.1 | / | -1.7 | 2.9 | -2.3 | -8.6
CC1CCCCC1NC(=O)CN1c2cccc3cccc(c23)S1(=O)=O (centres undefined) | 5.3 | 14.8 | 1.2 | / | -1.3 | 1.0 | / | / | 1.2 | /
Cc1ccc(C(=O)OCC(=O)N2CCC(Cc3ccccc3)CC2)cc1N | -2.6 | -12.8 | 2.7 | 1.2% | -0.5 | 6.8 | -6.7 | 0.8 | 2.1 | -79.4
COC(=O)[C@]1(C)N[C@H](CN(C)C(=O)c2ccc(F)cc2)[C@@H]2C(=O)N(Cc3ccccc3)C(=O)[C@@H]21 | 5.6 | 2.2 | -2.6 | -5.6% | -0.4 | 1.0 | / | / | -4.2 | /
COc1ccc(OCC(=O)OCC(=O)NC2CC2)cc1 | 2.9 | 7.7 | -3.9 | -9.5% | -1.9 | -4.9 | / | / | -5.8 | /
CCOC(=O)c1cc(-c2ccc(OC)cc2)nc2c1c(C)nn2CCC(N)=S | -0.9 | -8.4 | 1.8 | -0.2% | 0.8 | 2.3 | 20.6 | ? | / | -5.6
O=C(CCN1C(=O)/C(=C/c2ccccc2Cl)SC1=S)N1CCCC1 | 1.2 | 11.0 | 1.2 | / | 0.7 | -0.9 | -26.0 | 4.2 | -155.0 | 10.6
Cc1ccc(NC(=O)c2ccc(S(=O)(=O)N3CCCCC3)cc2)cc1 | / | / | / | -1.2% | / | / | -19.6 | 2.6 | / | -43.3
COc1ccc(OCC(=O)Nc2ccc3c(c2)nc(CCn2ccccc2=O)n3C)cc1 | -1.5 | 5.3 | -1.1 | / | -0.4 | 2.9 | -8.7 | 2.1 | / | -6.1
Cc1ccccc1OCC(=O)N/N=C/c1cn(Cc2ccccc2)c2ccccc12 | / | / | / | 0.4% | 0.3 | / | 9.8 | 1.0 | -4.4 | 16.9
CCc1nnc(NC(=O)CSCc2cc(=O)n3nc(C)sc3n2)s1 | 17.9 | 15.4 | 2.5 | -3.2% | -0.4 | -1.9 | 3.6 | -3.3 | -2.9 | -7.6
COc1ccc(Cc2nnc(SCC(=O)Nc3ccccc3C#N)o2)cc1 | 0.3 | 4.2 | -1.6 | -2.4% | 0.8 | 0.6 | -17.3 | 1.9 | -2.5 | -3.2
CCC(Oc1ccccc1)C(=O)Nc1cc(C)on1 (centres undefined) | -0.3 | 0.6 | -3.4 | -6.8% | 0.3 | -27.8 | 6.2 | ? | -9.7 | 0.3
COc1ccc(S(=O)(=O)N(C)c2ccc(C(=O)N3CCCC3)cc2)cc1 | 2.3 | -4.1 | -0.2 | 8.0% | 0.4 | -0.2 | 7.5 | -0.7 | / | -0.9
Cc1noc(C)c1C(=O)OC(C)C(=O)Nc1ccc2c(c1)OCO2 (centres undefined) | 4.2 | 10.2 | -1.0 | / | 0.2 | -0.5 | / | / | 0.8 | /
CCOC(=O)C1CCN(C(=O)CSc2c3c(nc4ccccc24)CCC3)CC1 | -5.8 | -6.1 | 0.4 | / | 0.9 | -0.7 | -14.5 | -2.1 | -5.9 | 7.8
O=C(O)c1ccccc1C(=O)NNc1cccc(Cl)n1 | 10.5 | 14.4 | 1.4 | / | 0.8 | -1.4 | 3.6 | 0.4 | -1.9 | -0.7
Cc1cccc(C(=O)N2CCCCCC2)c1[N+](=O)[O-] | 11.1 | 11.0 | 5.2 | -1.4% | -0.7 | -3.3 | -14.0 | 0.0 | 0.7 | -14.4
N#Cc1c(N2C(=O)Nc3ccccc3N2O)sc2c1CCCCCC2 | -44.1 | -43.0 | -12.8 | / | -0.1 | -14.6 | 9.4 | -1.3 | -7.3 | 10.6
Cc1cc(OCC(=O)NCCCN2CCCC2=O)c2c(C)c(C)c(=O)oc2c1 | -2.4 | 3.2 | -2.5 | 15.7% | 0.1 | -15.7 | -13.7 | 0.5 | -0.9 | 20.6
O=C(CN1C(=O)C2CC=CCC2C1=O)N1CCN(S(=O)(=O)c2ccccc2)CC1 (centres undefined) | 8.1 | -1.7 | 2.1 | / | 1.6 | 3.4 | / | / | -1.1 | /
CCOC(=O)CSC1=NC(=O)/C(=C/c2ccc(Br)cc2)S1 | -51.2 | -70.7 | -21.3 | -2.5% | -2.9 | -3.3 | 2.1 | -0.4 | -10.2 | -2.9
O=C(OCC1OC(n2cc(Br)c(=O)[nH]c2=O)C(Br)C1O)c1ccccc1 (centres undefined) | 6.5 | 7.2 | 0.9 | -2.1% | -0.4 | 2.2 | 0.6 | -3.5 | -14.6 | 5.4
O=C(CN1C(=O)S/C(=C\C=C\c2ccccc2)C1=O)Nc1cccc(O)c1 | / | / | / | / | -0.5 | / | -18.5 | 3.1 | 23.3 | ?
N#CC(C#N)=C1C(=O)N(CCN2CCCCC2)c2ccccc21 | 6.3 | 11.9 | 1.9 | 4.6% | -0.8 | 7.9 | 12.1 | 3.3 | -2.7 | -2.3
Cc1cccn2c(CN[C@@H]3CCCC[C@H]3c3ccccc3)c(C(=O)N3CCOCC3)nc12 | 16.4 | 5.5 | 0.9 | 10.1% | -0.1 | -0.3 | -8.4 | 5.5 | -5.4 | 8.9
COc1ccccc1-n1c(SCC(=O)Nc2ccc(Br)cc2)nc(O)cc1=O | 2.6 | -4.0 | 22.8 | -0.1% | 0.2 | -21.8 | -2.3 | -2.3 | / | -4.9
COc1ccc(NC(=O)CSc2nc3ccccc3c(=O)n2CCCN2CCOCC2)c(OC)c1 | -2.8 | -9.8 | 0.4 | 4.9% | 0.1 | 2.4 | 30.7 | 0.3 | -2.5 | 8.1
CC1CN(C(=O)CCC(=O)N2CCN(c3ccccn3)CC2)c2ccccc2O1 (centres undefined) | 8.0 | 7.3 | -0.1 | / | / | 3.0 | -11.2 | -1.4 | -3.2 | 0.5
Cc1cc(C)c(S(=O)(=O)NC2CC2)c(C)c1 | -10.9 | -7.3 | -3.9 | / | -0.6 | 3.0 | 7.2 | -2.4 | -7.7 | -5.5
CCOC(=O)N1CCN(C2CCCN(C(=O)c3cccc(N(C)C)c3)C2)CC1 (centres undefined) | 3.7 | 7.3 | -1.8 | / | -0.8 | 0.4 | -10.3 | -2.9 | -2.1 | 33.4
O=C(c1ccc(COc2ccc(F)cc2)o1)n1cc(Br)cn1 | / | / | / | 23.2% | -2.5 | / | -18.0 | 6.2 | 0.3 | 0.4
COC(=O)NCCOC(=O)N(O)c1ccc(Br)cc1 | -17.2 | -3.1 | 0.8 | 3.5% | 0.1 | -1.9 | -12.8 | / | -3.2 | -8.5
O=C(COc1ccc2c(c1)OCO2)NC12CC3CC(CC(C3)C1)C2 | / | / | / | 2.4% | -0.7 | / | -21.2 | 0.5 | -3.2 | /
Cc1c(CCC(=O)N2CCC(C(=O)O)CC2)c(=O)oc2cc3oc4c(c3cc12)CCCC4 | -3.9 | -7.5 | -0.4 | / | 1.2 | -1.0 | -6.8 | -2.3 | -3.0 | -4.5
COc1ccccc1N1CCN(c2cc(=O)n(-c3ccc(Cl)cc3)c(=O)[nH]2)CC1 | 4.2 | 9.0 | 0.6 | / | -0.3 | -1.0 | -3.7 | 3.0 | -2.7 | 0.2
Cc1ccc(/C=C/C(=O)N2CCN(c3ncccn3)CC2)o1 | / | / | / | 32.9% | 0.4 | / | -10.9 | -2.7 | -2.4 | 11.4
Cc1nc2ccc(NC(=O)N3CCCCC3)cc2s1 | / | / | / | -1.5% | -1.0 | / | 6.5 | 5.9 | -1.7 | 0.6
CCOc1cc(/C=N/n2cnnc2)c(Br)cc1O | / | / | / | 8.0% | -0.3 | / | -2.1 | 3.5 | -0.9 | -0.4
CN1C(=O)C(C(=O)Nc2ccccc2F)c2ccccc21 (centres undefined) | 9.4 | 11.6 | -0.1 | -10.6% | -1.2 | 1.4 | 4.4 | -1.3 | -0.3 | -8.9
O=C(CN1C(=O)NC2(CCCC2)C1=O)N1CCN(c2ccccc2O)CC1 | -1.7 | 3.7 | -0.7 | 0.9% | 0.4 | -13.4 | -6.0 | -1.3 | -0.2 | 4.8
Cc1ccc(-c2nn(CCC#N)cc2C=C(C#N)C#N)cc1 | 12.3 | 3.5 | 4.5 | 1.4% | 1.0 | 8.5 | -7.5 | 3.3 | / | -3.0
CCOc1ccc(CCNS(=O)(=O)c2c(C)nc3scc(C)n3c2=O)cc1OCC | 3.3 | 2.8 | 0.4 | / | 0.7 | -1.0 | 13.1 | 3.7 | -7.5 | 12.4
CCOC(=O)C1CCCN(c2c(NCCCN(CC)c3cccc(C)c3)c(=O)c2=O)C1 (centres undefined) | / | / | / | -0.6% | 0.6 | / | 7.8 | 2.3 | -1.5 | 34.6
O=C(OCC(=O)c1ccc(Cl)cc1Cl)c1cnccn1 | 11.0 | 16.9 | 2.5 | / | 0.0 | 0.4 | -2.3 | 3.2 | 0.0 | -0.5
COc1ccc(C2C(C(C)=O)=C(O)C(=O)N2c2ccc(F)cc2)cc1 (centres undefined) | -19.4 | -10.7 | -0.7 | / | 0.7 | -7.4 | 10.0 | -0.3 | / | 16.3
COc1ccc(-c2nc(CS(=O)CC(=O)NCc3ccccn3)c(C)o2)cc1 (centres undefined) | / | / | / | 6.3% | -0.6 | / | -3.0 | 2.8 | -3.8 | 0.1
CCOC(=O)CSc1nc2ccccc2c(=O)n1-c1ccc(C(=O)NCCOC)cc1 | / | / | / | -7.9% | 0.9 | / | -16.7 | 0.7 | 0.7 | 27.2
O=C(OCC(O)CN1CCCCC1)C12CC3CC(CC(C3)C1)C2 (centres undefined) | / | / | / | -8.0% | -0.6 | / | 0.0 | -1.5 | 0.3 | -13.1
Cc1cccc(Oc2ccccc2NC(=O)C2=COCCO2)c1 | -39.2 | -68.3 | -8.4 | -3.1% | -0.6 | 2.3 | / | / | 0.3 | /
CC(C)NCc1cccc([N+](=O)[O-])c1 | 14.6 | 5.3 | -3.4 | ? | 0.5 | 1.7 | -17.8 | 4.7 | 0.7 | 20.0
COc1ccc(OCC(=O)Nc2ccc(OC)c(S(=O)(=O)N3CCCCC3)c2)cc1 | -8.0 | -6.5 | 1.0 | -0.4% | 0.3 | 1.5 | -2.5 | 2.2 | / | 5.2
